Compound activity deposited in PubChem BioAssay by ICCB-Longwood Screening Facility, Harvard Medical School.
GIV-Gai inh: GIV-Galpha-i interaction inhibition. Galpha-i3/FITC-GIV peptide fluorescence polarization, 90 min; active compounds read low; scaled: aluminum fluoride 0%, vehicle 100%. percent of control (FP), % (concentration not given with the values). 210,000 tested, 0.42% active;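 active means replicate mean at 85% of control or lower, very high polarization wells dropped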;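 further: wells of about 15 µL received 100 nL stock; the first replicate is given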
Target sequence (P08753 whole entry, looked up): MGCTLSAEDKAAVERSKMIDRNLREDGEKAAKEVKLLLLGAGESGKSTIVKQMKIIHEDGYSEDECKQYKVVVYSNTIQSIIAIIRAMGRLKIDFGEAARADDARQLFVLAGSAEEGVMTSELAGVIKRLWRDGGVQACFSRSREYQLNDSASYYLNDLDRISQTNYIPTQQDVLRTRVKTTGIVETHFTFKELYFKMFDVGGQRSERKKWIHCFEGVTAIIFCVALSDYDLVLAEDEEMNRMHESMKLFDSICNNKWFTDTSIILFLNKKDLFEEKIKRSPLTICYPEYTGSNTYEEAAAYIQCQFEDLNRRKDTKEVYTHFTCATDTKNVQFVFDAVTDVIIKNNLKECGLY
HCMV UL50-53 inh: disrupts HCMV UL50-UL53 complex binding; 190,000 tested, 0.15% active; HTRF UL50-UL53 interaction, normalized percent inhibition; inhibition, % (concentration not given with the values);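 active means both replicates at 50% or more, plus weaker picks with an unusually low signal ratio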;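 further: stock transfer was 100 nL into about 20 µL; 0% = negative control wells and 100% = wells with untagged competitor protein; inactives centre near -12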
Sa growth inh: S. aureus growth inhibition. relative growth, % (no concentration beside the values). S. aureus RN4220 growth, OD600, 20 h, 42 °C; active compounds read low. 170,000 tested, 0.53% active. AID 720641;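 active means growth at 42 °C up to 50% and 20 or more points under that at 30 °C, or under 10% at both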;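 further: 300 nL library stock went into each well; scaled to the means of positive and negative controls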
Sa growth inh second temp: also measured in Sa growth inh; calls as there; relative growth, %; measured here: growth at 30 °C;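 optical density after 20 h as mean of two plates; 100% = untreated growth and lower means inhibition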
Starred values were filed as active, the others as inactive; . = no result given; & = joins results of further samples. Not all compounds are listed, so the mix of outcomes need not match the whole.

Abbreviations – A = GIV-Gai inh; B = HCMV UL50-53 inh; C = Sa growth inh; D = Sa growth inh second temp
SMILES: CCc1cncnc1N1CCN(Cc2nc3ccc(C(F)(F)F)cc3[nH]2)CC1
  A: 104; B: -15&-2; C: .; D: .
SMILES: O=C(O)CNC(=O)c1ccccc1
  A: .; B: 3; C: 105; D: 91
SMILES: O=C1CSC(c2ccc3cccc(O)c3n2)N1c1ccc(Cl)cc1 (centres undefined)
  A: 108&96; B: -28&-48; C: 85; D: 63
SMILES: COc1ccc2c(c1)N(C(=O)c1sc3ccccc3c1Cl)C(C)(C)c1ssc(=S)c1-2
  A: 100; B: -19; C: .; D: .
SMILES: N#CCCSc1nnc2sc3ccccc3n12
  A: 102; B: -4; C: .; D: .
SMILES: O=C(O)/C=C/c1ccc(O)cc1
  A: .; B: -35; C: 112; D: 89
SMILES: CCCCCC(=O)O[C@]1(C(C)=O)CCC2C3CCC4=CC(=O)CC[C@]4(C)C3CC[C@@]21C (some centres undefined)
  A: .; B: 17; C: 91; D: 86
SMILES: CCC(=O)O[C@]1(C(=O)SCF)[C@H](C)C[C@H]2[C@@H]3C[C@H](F)C4=CC(=O)C=C[C@]4(C)[C@@]3(F)[C@@H](O)C[C@@]21C
  A: .; B: 8&-28; C: 104; D: 103
SMILES: COc1ccc(-n2[nH]c3c(cnc4ccccc43)c2=O)cc1
  A: 102; B: -125; C: .; D: .
SMILES: CCC(Sc1nc2ccccc2c2nc(CCn3cncc3C)nn12)C(=O)Nc1cccc(OC)c1 (centres undefined)
  A: 106; B: .; C: 92; D: 87
SMILES: Cc1cc(=O)n(-c2ccccc2)[nH]1
  A: 108; B: 35; C: 105; D: 81
SMILES: Cc1ccnc(NC(c2cccc(O)c2)c2ccc3ccc(C)nc3c2O)c1 (centres undefined)
  A: 108; B: -48; C: 94; D: 89
SMILES: CCOc1ccc(NC(=O)Cn2cc(C(=O)c3cccs3)c3ccccc32)cc1
  A: 99; B: -10; C: 109; D: 95
SMILES: Nc1c2c(nc3ccccc13)CCCC2O (centres undefined)
  A: 100&103; B: -30&-12&-26; C: 86; D: 84
SMILES: Cc1cc(-c2nnc3sc(COc4ccc(F)cc4)nn23)n[nH]1
  A: 104; B: -16; C: .; D: .
SMILES: CC(=O)N1CC(O)C[C@H]1C(=O)O (some centres undefined)
  A: 108; B: 13; C: 103; D: 98
SMILES: O=C(O)C1[C@H]2C[C@H]3c4[nH]c5ccccc5c4CCN3C[C@@H]2CC[C@@H]1O (some centres undefined)
  A: .; B: -22; C: 89; D: 76
SMILES: CCn1cc(C(=O)O)c(=O)c2cc(F)c(N3CCNCC3)nc21
  A: 105; B: -13&-18&2; C: 59&75; D: 45&56
SMILES: Nc1ncnc2nc[nH]c12
  A: .; B: -28&-18; C: 92; D: 90
SMILES: Cc1cc(C)cc(OCC2CNC(=O)O2)c1 (centres undefined)
  A: .; B: -27; C: 100; D: 96
SMILES: CNc1c2c(nn1C)CCCC2
  A: 100; B: -12; C: .; D: .
SMILES: O=C(Nc1cccc2c1CCCC2)C1CCN(S(=O)(=O)c2cccc3nonc23)CC1
  A: 108; B: -15; C: .; D: .
SMILES: Cc1cccc(NC(c2ccccc2F)c2ccc3ccc(C)nc3c2O)n1 (centres undefined)
  A: 102; B: .; C: 81; D: 79
SMILES: Cc1cccc(NC(=O)C2CCCN(c3ncnc4onc(-c5ccc(F)cc5)c34)C2)n1 (centres undefined)
  A: 96; B: 0; C: .; D: .
SMILES: Cc1cccc(C)c1NC(=O)C1CCCCN1C (centres undefined)
  A: .; B: -32&-8&-61; C: 86&98; D: 84&92

Sorted by length of the SMILES (ascending): 16 of the compounds above
Abbreviations – A = GIV-Gai inh; B = HCMV UL50-53 inh; C = Sa growth inh; D = Sa growth inh second temp
SMILES: Nc1ncnc2nc[nH]c12
  A: .; B: -28&-18; C: 92; D: 90
SMILES: CNc1c2c(nn1C)CCCC2
  A: 100; B: -12; C: .; D: .
SMILES: O=C(O)CNC(=O)c1ccccc1
  A: .; B: 3; C: 105; D: 91
SMILES: Nc1c2c(nc3ccccc13)CCCC2O (centres undefined)
  A: 100&103; B: -30&-12&-26; C: 86; D: 84
SMILES: Cc1cc(=O)n(-c2ccccc2)[nH]1
  A: 108; B: 35; C: 105; D: 81
SMILES: Cc1cc(C)cc(OCC2CNC(=O)O2)c1 (centres undefined)
  A: .; B: -27; C: 100; D: 96
SMILES: COc1ccc(-n2[nH]c3c(cnc4ccccc43)c2=O)cc1
  A: 102; B: -125; C: .; D: .
SMILES: O=C1CSC(c2ccc3cccc(O)c3n2)N1c1ccc(Cl)cc1 (centres undefined)
  A: 108&96; B: -28&-48; C: 85; D: 63
SMILES: CCn1cc(C(=O)O)c(=O)c2cc(F)c(N3CCNCC3)nc21
  A: 105; B: -13&-18&2; C: 59&75; D: 45&56
SMILES: Cc1cccc(NC(c2ccccc2F)c2ccc3ccc(C)nc3c2O)n1 (centres undefined)
  A: 102; B: .; C: 81; D: 79
SMILES: Cc1ccnc(NC(c2cccc(O)c2)c2ccc3ccc(C)nc3c2O)c1 (centres undefined)
  A: 108; B: -48; C: 94; D: 89
SMILES: CCOc1ccc(NC(=O)Cn2cc(C(=O)c3cccs3)c3ccccc32)cc1
  A: 99; B: -10; C: 109; D: 95
SMILES: O=C(Nc1cccc2c1CCCC2)C1CCN(S(=O)(=O)c2cccc3nonc23)CC1
  A: 108; B: -15; C: .; D: .
SMILES: Cc1cccc(NC(=O)C2CCCN(c3ncnc4onc(-c5ccc(F)cc5)c34)C2)n1 (centres undefined)
  A: 96; B: 0; C: .; D: .
SMILES: O=C(O)C1[C@H]2C[C@H]3c4[nH]c5ccccc5c4CCN3C[C@@H]2CC[C@@H]1O (some centres undefined)
  A: .; B: -22; C: 89; D: 76
SMILES: CCCCCC(=O)O[C@]1(C(C)=O)CCC2C3CCC4=CC(=O)CC[C@]4(C)C3CC[C@@]21C (some centres undefined)
  A: .; B: 17; C: 91; D: 86

(cont.)
Abbreviations – A = GIV-Gai inh; B = HCMV UL50-53 inh; C = Sa growth inh; D = Sa growth inh second temp
SMILES: CCCCCCc1ccc(O)cc1O
  A: .; B: -17; C: 85; D: 83
SMILES: COc1ccc(C2CC(=O)N(c3cccc(Br)c3)C(=O)C2)cc1
  A: 100; B: -31; C: .; D: .
SMILES: CC1Sc2ccc(S(=O)(=O)N3CCC(C(=O)N4CCc5ccccc5C4)CC3)cc2NC1=O (centres undefined)
  A: 105; B: -3; C: .; D: .
SMILES: CCOc1ccc(-c2cc3c(SCC)nccn3n2)cc1
  A: 99; B: -4; C: .; D: .
SMILES: Cc1nc2nc(C)c(CCC(=O)N3CCC(Cc4ccccc4)CC3)c(C)n2n1
  A: 99; B: -4; C: .; D: .
SMILES: CC(=O)Nc1ccccc1
  A: .; B: -46&-13; C: 85; D: 89
SMILES: Cn1c(=O)c2c(ncn2CCO)n(C)c1=O
  A: 103; B: 0&-20; C: 98; D: 87
SMILES: Cc1nc(N2CCCC(C(=O)NC(C)C)C2)c2c(C)c(C)oc2n1 (centres undefined)
  A: 101; B: 4; C: .; D: .
SMILES: C=C1c2cccc(O)c2C(O)=C2C(=O)[C@]3(O)C(O)=C(C(N)=O)C(=O)[C@@H](N(C)C)[C@@H]3[C@@H](O)[C@H]12
  A: .; B: 36&1; C: 0.1*; D: 0.2*
SMILES: COc1ccccc1OCCNCC(O)COc1cccc2[nH]c3ccccc3c12 (centres undefined)
  A: 98&103; B: -33&-53&2&6&-20&-21; C: 97&103&93; D: 83&88&85
SMILES: Cc1ccccc1C(=O)Nc1cccc(-c2nc3cccnc3s2)c1
  A: 100; B: -6; C: 110; D: 88
SMILES: COc1ccc(/C=C/C(=O)O)cc1
  A: .; B: -16; C: 124; D: 114
SMILES: Cc1ccc(NC(=O)Cn2c(=O)n(CCC(=O)N3CCc4ccccc4C3)c(=O)c3ccccc32)c(C)c1
  A: 96; B: 0; C: 81; D: 95
SMILES: Cc1ccccc1Cc1c(C)nc2c(-c3ccccc3)c(C)[nH]n2c1=O
  A: 103; B: -6; C: 0.5*; D: -0.1*
SMILES: Cc1cccc2nc(-c3ccccn3)c(Nc3ccccc3)n12
  A: 108; B: -9; C: 103; D: 40
SMILES: CN(C)C(=O)[C@H](O)[C@H](Cc1ccccc1)NC(=O)c1cc2cc(Cl)ccc2[nH]1
  A: 108; B: -20; C: .; D: .
SMILES: Cc1nc2ncnn2c(C)c1CCC(=O)N1CCC(Cc2ccccc2)CC1
  A: 99; B: -13; C: .; D: .
SMILES: CCCC[C@@H](CC)COC(=O)c1ccccc1O
  A: .; B: -28; C: 89; D: 93
SMILES: Nc1c2ccccc2nc2ccccc12 (tested in a mixture with another compound)
  A: .; B: -137; C: 98; D: 86
SMILES: COc1ccc(OCC(=O)Nc2cc(-c3nc4ccccc4s3)ccc2C)cc1
  A: 112; B: -51; C: 85; D: 84
SMILES: CCOc1cc2c3c(c1)c(C1=NC(=S)NC1=O)c(O)n3C(C)(C)CC2C (centres undefined)
  A: 101; B: -9; C: 99; D: 94
SMILES: COc1ccc(CNC(=O)Nc2ccc3c(c2)N(C)C(=O)c2ccccc2S3)cc1OC
  A: 101; B: -2; C: 92; D: 87
SMILES: O=C(Nc1ccc(C(=O)O)c(O)c1)c1ccccc1
  A: .; B: -44; C: 86; D: 86
SMILES: Cc1ccc(Nc2nc3ccccc3c3nnc(C)n23)c(C)c1
  A: 100; B: .; C: 63; D: 84
SMILES: COc1ccc(CN2CCN(C(c3ccc(F)cc3)c3ccc(F)cc3)CC2)c(OC)c1OC
  A: 104; B: -28&-7&-82&-5; C: 95&79; D: 80&51
SMILES: NC(N)=NC(=O)Cc1c(Cl)cccc1Cl
  A: 108&103; B: -30&-2&-7&-8; C: 78; D: 48
SMILES: Cc1cccc2c1cnn2C(=O)CCC(=O)N1CCN(c2ccccn2)CC1
  A: 102; B: -34; C: .; D: .
SMILES: CCCN1CCN(c2cc(C(=O)O)c3cc(NS(=O)(=O)c4cc(C)c(C)cc4C)ccc3n2)CC1
  A: 100; B: -52; C: .; D: .
